# FGF22 binding: shifts melting point of recombinant human FGF22 | Q9HCT0 | recombinant FGF22 thermal shift, SYPRO orange fluorescence; percent of sucrose octasulfate shift, DMSO zero | calls only at 9.99 µM | hit rate 1.5% among 340,000 | AID 651658;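 active = melting point raised past a set limit in the mean and every replicate; three in four hits are not shown here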
# Target sequence (Q9HCT0 whole entry, looked up): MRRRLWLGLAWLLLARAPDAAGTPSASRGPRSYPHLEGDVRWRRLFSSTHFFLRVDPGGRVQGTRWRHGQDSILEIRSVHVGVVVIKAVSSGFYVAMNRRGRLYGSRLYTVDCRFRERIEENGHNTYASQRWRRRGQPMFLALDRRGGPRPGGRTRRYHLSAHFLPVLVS
# rRNA inh HTS: inhibitors of bacterial rRNA selective over humanized ribosomes | hit rate 1.6% among 350,000 | E. coli WT GFP vs humanized-ribosome RFP mutants, fluorescence, 24 h; hits give low values; DMSO median 0, no signal -100 | GFP signal change (wild-type ribosome), % (no concentration beside the values) | AID 720706;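 active = significant combined selectivity score with lowered wild-type GFP, culture density cut under 30%, mutant RFP and density less affected; inactive = any of these conditions unmet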; also: one replicate is shown; some compounds called inactive have numbers as strong as hits
# MLL AF4-AF9 inh: MLL-AF4/AF9 protein interaction inhibition | P42568 | AlphaScreen, biotin-AF4 peptide binding to FLAG-AF9 | inhibition, % at 10 µM | hit rate 0.47% among 350,000 | AID 651704;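 active = every replicate reaching a set inhibition limit, whatever the replicate mean, cut at about 25% in these data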;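 also: 0% = plate neutral control median and 100% = total signal loss; the record names both 10 and 1 µM as test concentration; the first replicate is given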
# Target sequence (P42568 whole entry, looked up): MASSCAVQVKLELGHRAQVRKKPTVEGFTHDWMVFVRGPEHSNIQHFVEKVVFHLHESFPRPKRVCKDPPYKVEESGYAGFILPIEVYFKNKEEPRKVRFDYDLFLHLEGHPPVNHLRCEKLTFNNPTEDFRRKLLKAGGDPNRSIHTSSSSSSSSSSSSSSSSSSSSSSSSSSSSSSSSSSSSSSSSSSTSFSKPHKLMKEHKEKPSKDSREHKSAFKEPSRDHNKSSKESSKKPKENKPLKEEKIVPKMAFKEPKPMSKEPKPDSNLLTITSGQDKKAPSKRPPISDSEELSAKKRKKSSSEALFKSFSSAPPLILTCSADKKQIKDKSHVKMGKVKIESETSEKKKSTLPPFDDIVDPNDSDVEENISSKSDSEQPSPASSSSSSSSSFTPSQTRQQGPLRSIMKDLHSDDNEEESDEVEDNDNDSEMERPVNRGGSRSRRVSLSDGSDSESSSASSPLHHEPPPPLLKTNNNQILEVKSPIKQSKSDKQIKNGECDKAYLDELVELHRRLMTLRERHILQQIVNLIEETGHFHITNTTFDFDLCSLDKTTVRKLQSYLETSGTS
# rRNA inh HTS OD600: recorded beside rRNA inh HTS, whose call it bears; OD600 change, %; measured here: OD600 growth;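 optical density of the mix in the first replicate; 0 = DMSO median and -100 = no signal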
# rRNA inh HTS RFP: recorded beside rRNA inh HTS, whose call it bears; RFP signal change, %; measured here: RFP humanized mutant strains;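 first replicate; 0 = DMSO median and -100 = no signal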
# * marks the source's active call; other numbers are inactive results; i = inactive. Some of the compounds tested, so the mix of outcomes need not match the whole.
SMILES,FGF22 binding,rRNA inh HTS,rRNA inh HTS OD600,rRNA inh HTS RFP,MLL AF4-AF9 inh
COc1ccc(C#Cc2cnc3c(c2)C(=O)N([C@H](C)CO)C[C@H](C)[C@H](CN(C)CC2CCOCC2)O3)cc1,i,6,4,-1.6,-0.6
C[C@@H]1CCCCO[C@@H](CN(C)Cc2ccc(C(F)(F)F)cc2)[C@H](C)CN([C@@H](C)CO)C(=O)c2cc(NS(=O)(=O)c3ccc(F)cc3)ccc2O1,i,-1,-22,4.0,1.2
CC(C)C#Cc1cnc2c(c1)C(=O)N([C@@H](C)CO)C[C@@H](C)[C@H](CN(C)C(=O)c1ccccn1)O2,i,1,7,-2.1,-4.8
CNC[C@H]1Oc2ncc(-c3cccc(F)c3)cc2C(=O)N([C@@H](C)CO)C[C@H]1C,i,1,14,-2.2,3.3
O=C(NC(c1ccc(Cl)cc1)c1ccccn1)C1CCN(CCOc2ccc(Cl)cc2Cl)CC1 (stereo not given),i,-57,-76,-11,1.6
Cc1noc(C)c1S(=O)(=O)N(C)C[C@H]1Oc2ccc(NC(=O)CCCCCC(=O)Nc3ccccc3N)cc2CC(=O)N([C@@H](C)CO)C[C@H]1C,i,1,-8,0.2,-0.1
C[C@@H]1CCCCO[C@H](CN(C)C(=O)CCC(F)(F)F)[C@H](C)CN([C@@H](C)CO)C(=O)c2cc(NC(=O)c3ccccc3)ccc2O1,i,-2,-10,-2.8,-1.0
COc1cccc(C(=O)OCC(=O)Nc2sc3c(c2C(N)=O)CCC3)c1O,i,6,13,1.0,-2.4
C[C@@H]1CCCCO[C@H](CN(C)C(=O)NC2CCCCC2)[C@H](C)CN([C@H](C)CO)C(=O)c2cc(NC(=O)C3CCCCC3)ccc2O1,i,-2,-8,-1.1,-0.9
CSCCC(C(=O)Nc1c(C)cccc1C)n1c(-c2cc(C)cs2)nc2ccccc21 (stereo not given),i,15,11,4.3,2.5
O=C(NC1CCCC1)N[C@H]1C=C[C@H](CC(=O)N2CCOCC2)O[C@@H]1CO,i,1,4,-2.7,-0.7
COc1cccc(-c2cnc3c(NC(C)=O)cc(-c4ccccc4OC)cn23)c1,i,-1,-14,0.8,-2.2
Cc1noc(C)c1NC(=O)Nc1ccc2c(c1)C(=O)N([C@H](C)CO)C[C@H](C)[C@@H](CN(C)Cc1ccncc1)O2,i,2,-3,-0.2,-2.4
C[C@@H]1CN([C@H](C)CO)C(=O)c2cccc(NC(=O)c3ccncc3)c2O[C@@H]1CN(C)C(=O)Nc1ccc2c(c1)OCO2,i,2,13,0.5,-1.3
N#C[C@H]1[C@@H](c2ccccc2)[C@@H](CO)N1C(=O)c1cccnc1,i,-2,1,-0.1,-2.2
CCN(CC(=O)Nc1c(F)cccc1F)C(=O)c1ccc(S(=O)(=O)N(CC)c2ccccc2)cc1,i,-7,-10,-1.0,-1.4
C[C@@H]1CCCCO[C@H](CN(C)C(=O)c2ccncc2)[C@H](C)CN([C@H](C)CO)C(=O)c2cc(NS(=O)(=O)c3ccc(F)cc3)ccc2O1,i,-3,-6,0.5,-0.5
O=C(N[C@@H]1CC[C@H](CCn2cc(-c3ccccn3)nn2)O[C@H]1CO)c1ccccc1,i,-3,-3,0.7,-1.6
C[C@H]1CN([C@@H](C)CO)C(=O)c2cc(NS(=O)(=O)c3cccs3)ccc2O[C@H]1CN(C)C(=O)Nc1cccc2ccccc12,i,-1,-4,6.3,-1.0
O=C(C[C@H]1C=C[C@@H](NS(=O)(=O)c2cccc(F)c2)[C@@H](CO)O1)N1CCCCC1,i,-2,1,-1.1,-1.4
COc1ccc(/C=N/NC(=O)c2nnn(-c3nonc3N)c2C)cc1OC,i,9,15,1.4,-1.1
CC(C)(C)[S@](=O)N1Cc2cc(C(=O)NCc3ccccc3F)nc(-c3cccc(-c4cccnc4)c3)c2[C@@H]1CCO,i,-18,-35,32,4.1
COc1ccccc1CN1CC(C(=O)N(C)CCc2ccccn2)CCC1=O (stereo not given),i,1,-8,-0.4,-7.9
COc1ccc(NC(=O)Nc2ccc3c(c2)CC(=O)N([C@@H](C)CO)C[C@H](C)[C@@H](CN(C)Cc2ccc(-c4ccccc4)cc2)O3)cc1,i,5,2,0.7,-0.9
COc1cc(/C=C2/SC(=S)N(CC(=O)NNC(=O)c3ccc(F)cc3)C2=O)cc(OC)c1OC,i,-1,3,-5.6,-1.6

# Single records (already shown):
# Listed for `COc1cccc(C(=O)OCC(=O)Nc2sc3c(c2C(N)=O)CCC3)c1O` → FGF22 binding: i; rRNA inh HTS: 6; rRNA inh HTS OD600: 13; rRNA inh HTS RFP: 1.0; MLL AF4-AF9 inh: -2.4
# Listed for `CC(C)C#Cc1cnc2c(c1)C(=O)N([C@@H](C)CO)C[C@@H](C)[C@H](CN(C)C(=O)c1ccccn1)O2` → FGF22 binding: i; rRNA inh HTS: 1; rRNA inh HTS OD600: 7; rRNA inh HTS RFP: -2.1; MLL AF4-AF9 inh: -4.8
# Listed for `C[C@@H]1CCCCO[C@@H](CN(C)Cc2ccc(C(F)(F)F)cc2)[C@H](C)CN([C@@H](C)CO)C(=O)c2cc(NS(=O)(=O)c3ccc(F)cc3)ccc2O1` → FGF22 binding: i; rRNA inh HTS: -1; rRNA inh HTS OD600: -22; rRNA inh HTS RFP: 4.0; MLL AF4-AF9 inh: 1.2

# The listing picks up; the 3 compounds before the break are reprinted first.
SMILES,FGF22 binding,rRNA inh HTS,rRNA inh HTS OD600,rRNA inh HTS RFP,MLL AF4-AF9 inh
COc1ccccc1CN1CC(C(=O)N(C)CCc2ccccn2)CCC1=O (stereo not given),i,1,-8,-0.4,-7.9
COc1ccc(NC(=O)Nc2ccc3c(c2)CC(=O)N([C@@H](C)CO)C[C@H](C)[C@@H](CN(C)Cc2ccc(-c4ccccc4)cc2)O3)cc1,i,5,2,0.7,-0.9
COc1cc(/C=C2/SC(=S)N(CC(=O)NNC(=O)c3ccc(F)cc3)C2=O)cc(OC)c1OC,i,-1,3,-5.6,-1.6
CS(=O)(=O)Nc1ccc2c(c1)[C@H]1C[C@@H](CC(=O)NCc3ccc(Oc4ccccc4)cc3)O[C@@H](CO)[C@H]1O2,i,0,-3,-1.4,-0.1
O=C(Cc1cccc(NC(=O)C2CCCN(C(=O)C3CCCCC3)C2)c1)Nc1ccc(C(=O)N2CCCCC2)cc1 (stereo not given),i,1,-1,4.1,-1.0
O=C(c1cccnc1)N1CC2(C1)[C@H](c1ccccc1)[C@@H](CO)N2CC1CC1,i,0,8,-1.4,-0.2
C[C@H]1CN([C@@H](C)CO)C(=O)c2cccc(NS(=O)(=O)c3ccccc3)c2O[C@H]1CN(C)S(C)(=O)=O,i,3,3,-4.1,-1.3
C[C@H]1CN([C@@H](C)CO)C(=O)Cc2cc(NC(=O)CCC(F)(F)F)ccc2O[C@@H]1CN(C)Cc1ccc(C(F)(F)F)cc1,i,4,2,-1.4,-0.8
CCC(=O)N1[C@H](CO)[C@@H]2c3ccccc3N(C(=O)Nc3cccc(Cl)c3)C[C@@H]21,i,-10,-9,4.2,0.1
CCC(=O)N(C)C[C@H]1Oc2cc(-c3ccc(F)cc3)ccc2S(=O)(=O)N([C@H](C)CO)C[C@@H]1C,i,-4,-7,-0.8,0.0
COc1ccc(S(=O)(=O)N[C@H]2CC[C@H](CC(=O)NCc3ccccc3F)O[C@H]2CO)cc1,i,2,6,3.3,-0.9
C[C@@H]1CN([C@H](C)CO)C(=O)c2cc(NS(=O)(=O)c3ccc(F)cc3)ccc2O[C@@H](C)CCCCO[C@H]1CN(C)S(=O)(=O)c1ccc(F)cc1,i,0,0,-1.6,1.5
O=C(C[C@H]1C=C[C@@H](NS(=O)(=O)c2ccc(F)cc2)[C@H](CO)O1)NC1CCC1,i,5,9,-3.8,-4.3
CNC[C@H]1OCCCC[C@H](C)Oc2ccc(NS(=O)(=O)c3ccc(F)cc3)cc2C(=O)N([C@@H](C)CO)C[C@@H]1C,i,3,4,-2.1,-0.4
C[C@@H]1CN([C@H](C)CO)C(=O)c2cccc(NC(=O)c3ccncc3)c2O[C@H]1CN(C)S(=O)(=O)c1ccc(F)cc1,i,2,3,1.5,-2.9
CNC[C@@H]1OCCCC[C@H](C)Oc2ccc(NC(=O)Cc3ccccc3)cc2C(=O)N([C@H](C)CO)C[C@@H]1C,i,6,1,-0.4,-1.2
Cn1cnc(S(=O)(=O)N2CCCCN3[C@H](C2)[C@@H](c2ccc(-c4cccc(F)c4)cc2)[C@@H]3CO)c1,i,-4,-45,3.7,-1.2
CC(C)C#Cc1ccc([C@@H]2[C@H](CO)N3CCCCN(C(=O)Nc4ccccc4)C[C@@H]23)cc1,i,-55,-72,-12,9.9
CO[C@H]1CN(C)C(=O)c2cc(NS(=O)(=O)c3cccc(F)c3)ccc2OC[C@H](C)NC[C@H]1C,i,-1,-3,-3.7,0.8
CCC(=O)N(C)C[C@@H]1Oc2ncc(-c3cccc(OC)c3)cc2C(=O)N([C@@H](C)CO)C[C@H]1C,i,0,3,-3.2,-2.8
CC1CC(C)CN(C(=O)c2cccc(S(=O)(=O)N(C)c3ccccc3)c2)C1 (stereo not given),i,-1,4,-3.3,-11
CN(C)C(=O)c1cccc(-c2cccc(-c3nc(C(=O)NCc4ccccc4)cc4c3[C@H](CCO)N(S(=O)C(C)(C)C)C4)c2)c1 (stereo not given in full),i,-2,-4,7.7,3.4
COc1ccccc1-c1ccc([C@H]2[C@@H](CO)N(C(=O)C3CC3)C23CN(C(C)=O)C3)cc1,i,-4,-8,3.6,0.2
CC(C)NC(=O)N(C)C[C@@H]1Oc2c(NC(=O)c3nc4ccccc4s3)cccc2C(=O)N([C@@H](C)CO)C[C@H]1C,i,3,2,-1.6,-2.6
COc1cccc(C#Cc2cnc3c(c2)C(=O)N([C@H](C)CO)C[C@H](C)[C@@H](CN(C)C(=O)C2CCOCC2)O3)c1,i,-1,-7,0.5,-0.3
CCCCn1nnnc1C(c1cc2ccccc2o1)N1CCN(CCN(C)C)CC1 (stereo not given),i,20,10,2.3,2.2
CO[C@H]1CC[C@@H]2CCOc3c(C#N)cccc3C(=O)N(C)C[C@H](OC)[C@@H](C)C(=O)N(C)C[C@H]1O2,i,3,5,-0.3,1.2
O=C1Nc2ccccc2C1=NN=Cc1ccco1,i,6,9,-1.3,2.6

# More entries follow:
SMILES,FGF22 binding,rRNA inh HTS,rRNA inh HTS OD600,rRNA inh HTS RFP,MLL AF4-AF9 inh
CC(C)NC(=O)N(C)C[C@@H]1Oc2c(NC(=O)C3CCOCC3)cccc2C(=O)N([C@@H](C)CO)C[C@@H]1C,i,5,14,-0.6,-3.6
C[C@H](CO)N1C[C@H](C)[C@@H](CN(C)C(=O)c2ccncc2)Oc2cc(C3=CCCCC3)ccc2S1(=O)=O,i,-1,-9,-3.7,-0.8
CCCCn1c(NCc2cc(C)ccc2O)nc2ccccc21,i,-9,4,-0.2,-9.7
CC(C)NC(=O)Nc1cccc2c1O[C@H](CN(C)C(=O)Nc1ccc(F)cc1)[C@H](C)CN([C@H](C)CO)C2=O,i,5,8,-2.3,-1.0
CCOC(=O)C(Cc1cc(N)c(Oc2ccc(OC)cc2)c(N)c1)NC(C)=O (stereo not given),i,-2,12,0.2,1.0
O=C(NCc1ccccc1)[C@@H]1CCCN1C(=O)[C@@H]1CCCN1C(=O)c1cccs1,i,0,23,-1.4,-0.6
C[C@H](CO)N1C[C@H](C)[C@@H](CN(C)C(=O)Nc2ccc(F)cc2)Oc2cc(C#CC3(O)CCCC3)ccc2S1(=O)=O,i,0,-3,-0.9,-0.5
O=C(Nc1cccc(Cl)c1)N[C@H]1CC[C@H](CCn2cc(Cc3ccccc3)nn2)O[C@@H]1CO,i,-23,-40,0.2,3.2
O=C(C[C@@H]1C[C@H]2c3cc(NC(=O)C4CCOCC4)ccc3O[C@H]2[C@H](CO)O1)NCc1ccc2c(c1)OCO2,i,5,5,-3.7,2.1
COc1cccc(S(=O)(=O)N2C[C@@H](O)COC[C@@H]3O[C@H](CC(=O)N4CCOCC4)CC[C@H]32)c1,i,-5,-2,-4.0,-1.8
COCC#Cc1cnc2c(c1)C(=O)N([C@@H](C)CO)C[C@H](C)[C@H](CN(C)S(=O)(=O)c1cccc(OC)c1)O2,i,2,-1,-2.6,-1.0
COc1ccccc1-c1ccc2c(c1)O[C@@H](CN(C)S(=O)(=O)c1ccccc1)[C@@H](C)CN([C@@H](C)CO)S2(=O)=O,i,-2,3,-3.2,-0.7
C[C@@H]1CN([C@H](C)CO)C(=O)c2cccc(NC(=O)Nc3ccc(F)cc3)c2O[C@@H]1CN(C)Cc1ccccc1,i,1,-5,-1.4,-2.0
O=C(CC(F)(F)F)N1C[C@@H]2[C@H](c3ccccc31)[C@H](CO)N2C(=O)c1ccncc1,i,3,7,-0.6,1.4
O=C1c2cc([N+](=O)[O-])ccc2-c2cc(Cl)c(NC(=O)C(F)(F)F)cc21,i,-7,0,-2.0,-2.6
C[C@@H]1CN([C@H](C)CO)C(=O)c2cccc(NC(=O)Nc3ccc(F)cc3)c2O[C@@H]1CN(C)S(=O)(=O)c1cccs1,i,-1,-10,3.1,2.6

# Screening data deposited in PubChem BioAssay by Broad Institute.
